Beta2AR agonist: agonists of human beta-2 adrenergic receptor inducing internalization; P07550; Am2.2-beta2AR cells, FAP receptor internalization, flow cytometry; reference of the scale not given here; response, % (concentration not given with the values); 0.43% of 340,000 active; AID 504454;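 active = response above a set limit, near 3 SD of response in nonfluorescent compounds, cut at about 42% in these data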;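 also: stock transfer was 100 nL into about 11 µL; a reference agonist was the positive control; negative values mostly stem from fluorescent compounds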
Target sequence (P07550 whole entry, looked up): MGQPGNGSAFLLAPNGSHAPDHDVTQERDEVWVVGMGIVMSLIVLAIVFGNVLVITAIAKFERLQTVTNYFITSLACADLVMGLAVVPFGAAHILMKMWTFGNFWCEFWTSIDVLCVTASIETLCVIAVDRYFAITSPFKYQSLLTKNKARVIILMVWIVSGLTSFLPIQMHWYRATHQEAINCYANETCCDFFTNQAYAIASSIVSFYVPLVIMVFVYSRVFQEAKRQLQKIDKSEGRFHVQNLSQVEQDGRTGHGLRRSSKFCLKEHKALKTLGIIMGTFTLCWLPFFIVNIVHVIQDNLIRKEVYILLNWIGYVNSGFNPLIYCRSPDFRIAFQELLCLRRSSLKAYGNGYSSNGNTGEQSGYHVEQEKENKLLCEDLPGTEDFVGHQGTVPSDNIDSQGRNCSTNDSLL
Beta apoptosis: blocks beta cell apoptosis; 0.8% of 300,000 active; protection from apoptosis, % (no concentration beside the values); INS-1E cytokine-induced death, ATP luminescence, 48 h; percent of positive-control rescue, neutral wells zero; AID 435005;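 active = all replicates at 75% or more, or half of them and the mean; inconclusive = half reach 75% but not the mean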;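 also: 0% = cytokine-treated negative control wells and 100% = positive control rescue; higher means more ATP so stronger rescue from cytokine killing; wells of about 40 µL received 100 nL stock; the first replicate is given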
UCH37 DUB inh: human UCH37 deubiquitinating enzyme inhibition; Q9Y5K5; purified proteasome/UCH37, Ub-AMC cleavage fluorescence; inhibition, % (no concentration beside the values); 0.33% of 330,000 active; AID 588478;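 active = mean of two replicates above 20%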;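 also: 0% = compound-free wells with enzyme and 100% = wells lacking proteasome; stock transfer was 100 nL into about 20 µL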
Target sequence (Q9Y5K5 whole entry, looked up): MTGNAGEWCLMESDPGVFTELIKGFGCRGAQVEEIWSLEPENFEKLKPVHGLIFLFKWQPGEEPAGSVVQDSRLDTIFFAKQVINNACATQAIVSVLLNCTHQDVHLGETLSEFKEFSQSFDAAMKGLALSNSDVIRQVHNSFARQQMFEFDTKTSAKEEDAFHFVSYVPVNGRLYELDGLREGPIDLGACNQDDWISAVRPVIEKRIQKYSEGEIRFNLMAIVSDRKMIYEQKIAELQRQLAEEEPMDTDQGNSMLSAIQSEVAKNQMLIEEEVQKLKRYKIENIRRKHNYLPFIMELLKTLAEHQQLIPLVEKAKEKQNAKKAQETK
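Material: Human UCH37 enzyme supplied as purified proteasome complex | Schedule: 30 min compound-proteasome preincubation then 25 min substrate reaction, room temperature | Detection: AMC fluorescence from Ub-AMC cleavage, excitation 355 nm, emission 460 nm | Benchmarks: Wells without proteasome as full block, compound-free enzyme plus substrate as uninhibited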
A1 inh: inhibitors of the anti-apoptotic protein A1, read as caspase activation | MEF A1-2A-BIM cells, Caspase-Glo 3/7 luminescence, 3 h; percent of clofoctol response, vehicle zero | caspase activation, % (no concentration beside the values) | 0.066% of 330,000 active | AID 2462;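 active = over half of replicate activation scores above 10%, or exactly half above 10 with the replicate mean above 10; inconclusive = replicate mean below 10 yet half the replicates above 10; inactive = over half of replicates below 10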;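 also: wells of about 30 µL received 50 nL stock; many hits fall short of the cut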
T cruzi repl: blocks replication of Trypanosoma cruzi; inhibition, % (no concentration beside the values); T. cruzi beta-gal in NIH3T3, luminescence, 90 h; AID 1885; 1.4% of 300,000 active;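 active = mean inhibition across valid replicates above about 55%, limit read from the data; inconclusive = mean below that limit but half or more replicates reach it; inactive = mean below it, under half of replicates reach it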;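 also: signal also drops with host cell toxicity which is not excluded here; 0% = plate median of DMSO wells and 100% = zero luminescence signal; higher percent means less beta-gal luminescence so fewer parasites; stock transfer was 50 nL into about 50 µL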
LANA-H2B inh: blocks KSHV LANA binding to histone H2A/H2B; 0.6% of 320,000 active; Q9QR71; inhibition, % (concentration not given with the values); cell-free LANA-H2A/H2B peptide, fluorescence polarization; in the data active = inhibition mostly above about 10%, no sharp cut-off; inactive = mostly below about 6.7%;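 also: stock transfer was 7.5 nL into about 10 µL; 0% = median of vehicle wells and 100% = median of positive control wells; one replicate is shown; the record names a cut of 25% in any replicate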
Calb FLC: affects C. albicans growth with fluconazole; growth inhibition, % (no concentration beside the values); C. albicans CaCi-2 (fluconazole-resistant clinical isolate) + fluconazole, Alamar Blue growth, 48 h; 0.57% of 300,000 active;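 active = most replicates above 75%; inconclusive = exactly half above 75%; inactive = most below 75%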;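 also: all wells also contain fluconazole at 8 µg/ml as a sub-toxic cotreatment; 0% = median of DMSO wells and 100% = median of geldanamycin control wells; wells of about 8 µL received 7.5 nL stock; the first replicate is given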
RanGTP-Impb inh: disruptors of Ran-importin-beta complex formation – biochemical, FRET, CFP-Ran, YFP-importin-beta, homogeneous, primary screen. cell-free CFP-Ran/YFP-importin-beta FRET ratio. inhibition, % (concentration not given with the values). 1.1% of 300,000 active;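 active = most replicates above 15%; inconclusive = exactly half above 15%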;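 also: 0% = DMSO wells and 100% = Ran loaded with GDP instead of GTP; wells of about 40 µL received 100 nL stock; the first replicate is given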
* hit, by the source's call; u = inconclusive; x = no result given.

smiles	Beta2AR agonist	Beta apoptosis	UCH37 DUB inh	A1 inh	T cruzi repl	LANA-H2B inh	Calb FLC	RanGTP-Impb inh
CCN1C(=O)C(O)(CC(=O)c2ccc(-n3cccc3)cc2)c2ccccc21 (stereo not given)	-1	-2	2.4	-0.6	3	-4.4	-31	-4.3
N#CC(C#N)=Cc1ccc(-c2ccc(S(=O)(=O)N=C(N)N)cc2)o1	2	-5	x	0.2	-16	1.3	-10	9.2
C=CCN(CC=C)C(=O)Cc1ccc(F)cc1	-9	-5	0.2	0.5	-8	-2.0	1	-7.4
COC(=O)C(C)(C)ONC(=O)Nc1ccccc1Cl	-2	-4	5.6	-0.1	-8	0.6	3	-0.6
CC(=O)C12CCCCC1CC1C3CC(C)C4(O)CC(=O)CCC4(C)C3CCC12C (stereo not given)	-5	7	1.0	0.9	34	-6.0	-1	-2.5
O=C(CSc1ncccn1)NCc1ccccc1Cl	1	-4	1.2	0.0	-8	-1.3	-2	1.7
COC(=O)CCSCC(=O)N1N=C(c2ccc(Br)cc2)CC1c1cccc(OC)c1OC (stereo not given)	3	5	-0.5	-0.2	4	-2.3	-10	-0.8
Cc1cc(Br)ccc1OCC(=O)NC1CCCC1	-1	-3	2.8	1.4	1	-6.8	-17	-0.4
COc1ccc(S(=O)(=O)c2c(O)c3ccc(C(=O)Nc4ccccc4)cc3[nH]c2=O)cc1	21	x	6.9	-0.9	2	0.4	-1	2.9
CC(C)(C)C(=O)Nc1ccc2c(c1)-c1cc(NC(=O)C(C)(C)C)ccc1C2	0	10	7.7	-0.8	2	2.8	27	-1.8
CC(=O)n1nc(-c2ccccc2)nc1NCc1ccc(N(C)C)cc1	-7	0	2.7	0.3	-9	-6.3	4	2.4
CCOC(=O)[C@@H]1[C@H]2COc3cc(OC)ccc3[C@@H]2N2C(=O)N(c3ccc(Br)cc3)C(=O)[C@@]12C	-10	-6	-1.5	1.3	-2	7.2	9	-1.3
Cc1ccc(CCNC(=O)C2CCCN(C(=O)N(C)C)C2)cc1 (stereo not given)	0	-7	2.7	0.7	-9	-1.9	-4	4.0
CS(=O)(=O)N1CCN(c2ccccc2NC(=O)c2ccc(Br)o2)CC1	11	9	2.9	-0.3	15	3.3	24	-1.5
Oc1ccc2ccccc2c1CN1CCN(c2ccccc2)CC1	3	-3	-4.0	0.0	-13	5.6	31	u
Cc1nc(-c2cccc(S(=O)(=O)N3CCC(C)CC3)c2)cs1	-4	2	1.6	0.0	15	-3.5	11	-1.4
COc1ccccc1C1CC(=O)n2c(nc(-c3ccccc3)c2-c2ccccc2)S1 (stereo not given)	22	-6	-7.6	0.4	-2	-2.4	2	-3.4
CNC(=O)Nc1ccc2nc(C)sc2c1	5	-7	3.8	0.1	-17	-8.6	3	-4.8
CCCNS(=O)(=O)c1ccc(NC(=O)Cc2cccs2)cc1	13	3	4.5	-5.4	-8	-0.1	2	-0.1
O=C(CSc1nnc(-c2cccc(S(=O)(=O)N3CCCC3)c2)n1-c1ccccc1)Nc1ccc(C(=O)O)cc1	-5	-2	2.0	0.7	3	2.1	-5	-0.8
CC(N=C1NS(=O)(=O)c2ccccc21)C(=O)N1CCc2ccccc2C1 (stereo not given)	0	-1	1.1	0.1	2	2.3	-5	-1.9
O=C(CCC(=O)c1ccc(F)cc1)Nc1ccccc1Cl	6	3	5.3	0.3	-23	-1.5	u	-1.9
COc1cccc(C(=O)OCn2nnc3ccccc3c2=O)c1	-9	-7	6.0	-0.2	-18	-5.1	-8	5.1
COc1cccc(NC(=O)COC(=O)CCn2c(C)csc2=O)c1	-3	-1	-2.4	-0.1	-9	2.3	41	u
O=C(Nc1ccccc1)C1=C[C@H](c2ccc(C(F)(F)F)cc2)C[C@H](OCc2ccc(CO)cc2)O1	x	-9	-0.2	0.2	18	3.2	1	-1.3
COc1ccc(OC)c(NC(=O)C(=O)NNC(=O)c2cccs2)c1	4	-2	-3.8	-0.1	2	0.4	13	-1.2
COc1ccc(C(=O)NC(=S)Nc2ccc([N+](=O)[O-])cc2C)cc1OC	-10	1	4.1	1.5	16	-7.9	-3	-4.8
Cc1nn(-c2ccccc2)c(Cl)c1C(=O)Nc1nnc(C2CCCCC2)s1	9	6	-0.4	0.9	6	-0.3	21	4.5
Cc1onc(-c2c(Cl)cccc2Cl)c1C(=O)N1CCOCC1	2	-3	0.8	-0.3	-2	-2.1	0	0.7
NC(=O)c1ccc(NC(=O)COC(=O)c2ccc3ccccc3n2)cc1	0	-1	-0.1	-1.9	x	6.8	x	x
N#Cc1cc2c(nc1SCc1ccccc1)CCC2	-13	-5	1.2	-0.9	13	0.0	-13	-0.3
COc1cc(Cl)c(C)cc1NC(=O)c1cccc(OC)c1OC	-1	7	-1.3	0.4	33	-6.4	9	-0.7
COC(=O)c1cccc(S(=O)(=O)N2CCC(NC(=O)NC34CC5CC(CC(C5)C3)C4)CC2)c1	-2	1	1.4	0.3	19	-1.1	-3	u
Cc1ccc(CNC(=O)CN(C)S(=O)(=O)c2ccc(F)cc2)cc1	4	-1	-0.4	-0.2	6	-7.9	0	-0.8
CCOc1ccc(Cl)cc1S(=O)(=O)NCc1ccccn1	-11	-4	3.3	-0.1	8	2.3	-2	5.3
Oc1c(Cl)cc(Cl)cc1CNn1cnnc1	-9	2	1.0	-0.6	-19	x	1	0.0
CC(=O)OC(CC(=O)O)C[N+](C)(C)C (stereo not given)	1	5	1.9	-0.4	-14	0.8	-2	0.9
CCOc1ccc(CCNC(=O)CSCC(=O)Nc2ccc(OC)cc2)cc1OCC	1	-1	1.7	-0.9	x	3.7	x	x
COc1ccc(S[C@@H](CCN2CC[C@H](C)CCC2=O)c2ccccc2)cc1	3	-4	0.1	-1.0	x	-0.4	x	x
Cc1ccc(S(=O)(=O)/N=C(/Nc2ccc(F)cc2F)c2ccccc2)cc1	-1	-1	-0.2	-0.3	10	4.7	11	1.4
CC(C)(C)c1cc(CCC(=O)NCC2CCCO2)cc(C(C)(C)C)c1O (stereo not given)	-1	-12	-1.5	0.0	17	3.1	5	3.7
COc1cccc(-c2ccc(-c3noc(-c4ccccc4F)n3)c(OC)n2)c1	8	-1	-118	0.3	4	1.9	-10	5.2
O=C(NCC1CCCCC1)c1cc(S(=O)(=O)N2CCCCC2)ccc1N1CCOCC1	-7	1	0.6	0.5	39	-3.1	8	4.0
Cc1nnc(NC(=O)C2CCN(c3cnccn3)CC2)s1	-2	-1	-10	0.3	-7	0.5	8	-4.6
COc1ccc(Cl)cc1NC(=O)C1CCCN(c2ncnc3c2nc2n3CCCCC2)C1 (stereo not given)	-8	17	4.8	0.4	30	-0.7	-9	3.4
C=C(C)CN(CC)C(=O)CSc1nc2ncc(Cl)cc2[nH]1	-13	-1	2.5	1.1	9	1.5	-8	-5.9
COc1ccc(C(C)=O)cc1COc1ccccc1[N+](=O)[O-]	-8	10	0.5	-0.2	15	-4.1	u	-2.8
Cc1ccc(CN(C)C(=O)c2cc(S(=O)(=O)N3CCOCC3)ccc2F)o1	-6	-3	1.8	1.0	x	1.6	x	x
CC1(C)C2CCC(C2)C1(C)NC(=O)CN1CCCC1 (stereo not given)	-2	x	-1.6	0.1	13	-1.7	5	-4.3
O=C1c2ccccc2C(Nc2cccnc2)N1Cc1ccccc1Cl (stereo not given)	1	-7	2.1	-0.1	38	-0.9	9	1.5
Cc1nnc(N(C)C(=O)c2ccc3c(c2)OCO3)s1	-1	-2	3.0	2.1	-9	-0.7	27	3.9
CC(=O)Oc1ccc(Cn2cnc3cc4ccccc4cc32)cc1	-2	2	-15	0.1	-7	-0.8	30	0.3
COc1cccc(C(c2c(NC(=O)c3ccccc3)sc(C)c2C)N2CCN(C)CC2)c1 (stereo not given)	2	-8	-3.0	0.5	25	3.5	-15	-2.5
C=CCC[C@H](Cc1ccc(F)cc1)C(=O)OC[C@H](Cc1c[nH]c2ccccc12)NC(=O)[C@H](CC=C)CC(=O)NCCO	6	-5	-0.3	-0.8	x	8.6	x	x
c1cc(-c2nn[nH]n2)ccc1CN1CCCCC1	-5	-4	-1.2	0.6	1	-0.8	18	0.9
COc1ccc(CCC(N)=O)cc1OC	7	-6	1.0	-1.0	1	-1.0	8	1.6
CCOC(=O)c1ccc(NC(=S)Nc2ccc3[nH]c(=O)[nH]c3c2)cc1	-6	-2	0.9	-0.1	-4	-0.3	0	2.0
Cc1cc(C(=O)CC#N)c(C)n1-c1c(C)n(C)n(-c2ccccc2)c1=O	-4	-4	5.8	0.4	-18	5.1	-4	-2.9
COc1cc(COc2ccc3c(C)c(CCC(=O)O)c(=O)oc3c2)cc(OC)c1OC	-4	-7	-51	-0.4	-1	-1.2	3	-0.2
Nc1nonc1-n1nnc(C(=O)N/N=C/c2ccccc2)c1CSc1ccc(Cl)cc1	-8	-4	x	0.6	-4	2.0	-6	17*

Continued (four carried over from the part before).
smiles	Beta2AR agonist	Beta apoptosis	UCH37 DUB inh	A1 inh	T cruzi repl	LANA-H2B inh	Calb FLC	RanGTP-Impb inh
CCOC(=O)c1ccc(NC(=S)Nc2ccc3[nH]c(=O)[nH]c3c2)cc1	-6	-2	0.9	-0.1	-4	-0.3	0	2.0
Cc1cc(C(=O)CC#N)c(C)n1-c1c(C)n(C)n(-c2ccccc2)c1=O	-4	-4	5.8	0.4	-18	5.1	-4	-2.9
COc1cc(COc2ccc3c(C)c(CCC(=O)O)c(=O)oc3c2)cc(OC)c1OC	-4	-7	-51	-0.4	-1	-1.2	3	-0.2
Nc1nonc1-n1nnc(C(=O)N/N=C/c2ccccc2)c1CSc1ccc(Cl)cc1	-8	-4	x	0.6	-4	2.0	-6	17*
C=CC[C@@H](CC(=O)N(CCO)Cc1ccccc1)C(=O)N[C@H](COC(=O)[C@@H](CC=C)CC(=O)OC(C)(C)C)Cc1c[nH]c2ccccc12	9	-2	6.5	-0.1	x	-4.9	x	x
O=C(NCCc1ccc(Cl)cc1)C1CCC(=O)N1Cc1ccc(F)cc1 (stereo not given)	4	-4	3.4	0.1	-9	3.5	-2	6.7
O=C1CCSc2ccc(Cl)cc2N1Cc1cccc(Cl)c1	2	-5	5.9	u	20	-6.1	22	-4.6
CS(=O)(=O)N1CCN(C(=O)c2cc(-c3ccncc3)nc3ccc(Cl)cc23)CC1	13	2	0.0	1.1	26	-0.2	-4	-2.4
C#CCOc1nc(C)cc(C)c1S(=O)(=O)c1ccccc1C	5	-6	-0.2	1.1	9	6.3	-8	-1.9
CCOC(=O)c1sc(C)c2c(=O)n(Cc3ccc(Cl)cc3)cnc12	10	-2	x	0.3	22	0.9	-4	0.0

High-throughput results: PubChem, several laboratories
